# Compound activity deposited in PubChem by National Center for Advancing Translational Sciences (NCATS).
# GLA inh pH 4.5 – alpha-galactosidase A (human) inhibition, pH 4.5 | 230,000 tested, under 10 active | activity change, negative = inhibition, % at 105 µM | purified enzyme, 4-MU-alpha-Gal fluorescence, pH 4.5; inconclusive = small, poorly fitted or top-dose-only inhibition, or a rising curve; inactive = flat fitted curve, though single readings scatter; no compound was filed as active;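 further: 0% = full activity with enzyme and -100% = basal without enzyme; dose as in the result columns while the protocol names 77 µM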
# miR-21 FLuc – miR-21 reporter, rising signal. HeLa miR-21 FLuc reporter, luciferase, 48 h. Potency, µM (top dose mostly 38.3 µM), for inactives: at the top dose reporter change, positive = more light. 340,000 tested, under 10 active; active = well fitted rising curve with a large enough effect; inconclusive = small, poorly fitted or top-dose-only effect; inactive = no such curve, though single readings can be large or run the other way;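 further: % of control where 0% means no effect; miR-21 action dims this reporter so a rising signal means less miR-21 action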
#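 Compounds were titrated across several concentrations (up to approximately 40 uM) and incubated 48 hours with HeLa miR-21-FLuc reporter cells (miR-21 target sequence downstream of FLuc, endogenous miR-21). Readout was firefly luciferase luminescence after lytic detection reagent.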
# Rango release inh – inhibitors of RanGTP-induced Rango-importin beta complex dissociation. O95149+P62826. Potency, µM (titrated, usually from 46.1 µM), for the others: at the highest dose activity change, negative = inhibition. AID 540253. Biochemical FRET Rango-importin beta, RanGTP-induced dissociation. 0.071% of 340,000 active; active means falling FRET ratio curve, often poorly fitted, with flat reads before Ran was added; inconclusive means other falling curves, or compound fluorescence or quenching; inactive means flat or rising ratio curve;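 further: potency means the concentration at half of the fitted maximal effect; % of control where 0% means no effect; nearly all actives have a fitted effect of over 45% in size; -100% = wells without RanGTP and RCC1; the record marks most hits as doubtful in a second field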
#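 Compounds sat 5 min at room temperature with 0.1 uM Rango biosensor plus 0.25 uM importin beta, then FRET pre-read. RanGTP-RCC1 (0.6 uM Ran, 2mM GTP, 0.2 uM RCC1) added for 45 min, and the CFP/YFP post-read measured blocked complex dissociation.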
# Rango complex inh – Rango-importin beta binding inhibition; Rango CFP/YFP FRET sensor + importin beta, 45 min; Potency, µM (doses to about 92.2 µM), for the others: at the top dose inhibition of complex formation; Q14974; 0.031% of 340,000 active; active = rising FRET ratio curve, often small or poorly fitted; inconclusive = mostly compound fluorescence or quenching in the first reads; inactive = flat curves in all reads;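 further: potency means the concentration at half of the fitted maximal effect; 0% = DMSO wells and 100% = buffer wells lacking importin beta; nearly all actives have a fitted effect of over 15% in size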
# Target sequence (Q14974 whole entry, looked up): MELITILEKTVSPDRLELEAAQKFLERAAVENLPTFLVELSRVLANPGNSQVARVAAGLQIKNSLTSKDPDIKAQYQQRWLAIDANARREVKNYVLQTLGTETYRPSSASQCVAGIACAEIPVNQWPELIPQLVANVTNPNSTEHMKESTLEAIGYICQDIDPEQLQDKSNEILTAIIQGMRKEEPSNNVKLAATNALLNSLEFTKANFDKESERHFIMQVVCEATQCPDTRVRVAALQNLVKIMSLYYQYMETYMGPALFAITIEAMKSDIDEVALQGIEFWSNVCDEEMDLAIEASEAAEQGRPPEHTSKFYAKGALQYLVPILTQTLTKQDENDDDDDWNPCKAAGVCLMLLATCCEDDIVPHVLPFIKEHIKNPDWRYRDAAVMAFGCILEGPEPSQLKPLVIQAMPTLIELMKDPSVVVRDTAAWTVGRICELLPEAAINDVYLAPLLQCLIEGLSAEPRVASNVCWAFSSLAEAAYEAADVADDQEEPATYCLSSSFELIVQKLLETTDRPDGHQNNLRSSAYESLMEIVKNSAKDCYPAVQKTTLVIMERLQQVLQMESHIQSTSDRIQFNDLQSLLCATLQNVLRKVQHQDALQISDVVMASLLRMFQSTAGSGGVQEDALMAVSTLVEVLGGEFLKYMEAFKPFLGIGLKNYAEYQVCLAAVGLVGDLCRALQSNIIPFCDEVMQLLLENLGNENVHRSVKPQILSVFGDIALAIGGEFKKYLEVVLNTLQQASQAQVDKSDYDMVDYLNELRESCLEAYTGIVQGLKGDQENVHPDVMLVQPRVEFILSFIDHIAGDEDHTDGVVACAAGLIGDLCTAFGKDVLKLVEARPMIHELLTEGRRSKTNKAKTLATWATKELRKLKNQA
#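 FRET biosensor (snurportin 1 IBB flanked by EYFP and cerulean), 50 nM, with compound 5 min, then 0.125 microM importin beta in PBS, 1 mM DTT, 0.02% Tween-20, 0.1% BSA. CFP/YFP ratio read after 45 min at room temperature; pre-read flags interference.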
# * = called active by the depositor; ? = inconclusive; . = no result given; & = joins results of further samples. Only part of the results is shown (hit frequency here may not be typical).
no.	Structure	GLA inh pH 4.5	miR-21 FLuc	Rango release inh	Rango complex inh
1	COc1ccc(C(=O)NC(Cc2ccccc2)c2ccc3c(c2)OCCCO3)cc1 (stereo unspecified)	-3.8	-20.1%	1.3%	-2.0%
2	CCOC(=O)c1c(N)n(-c2ccc(N)cc2)c2nc3ccccc3nc12	-5.1	-2.1%	0.4%	?
3	O=S(=O)(NCc1ccncc1)c1ccccc1	3.1	10.7%	3.8%	-3.0%
4	O=C(NC(=S)Nc1ccc(CN2CCCCC2)cc1)c1cccc(OCc2ccccc2)c1	2.3	-11.2%	?	-4.7%
5	O=C(O)CCC(=O)Nc1ccc(Br)cc1C(=O)c1ccccc1	9.5	-0.3%	-14.2%	-3.8%
6	COc1ccc(Cl)cc1NC(=O)COc1ccc2c(c1)OCO2	.	.	13.4%	-1.0%
7	CN[C@H](C)C(=O)NC[C@H]1O[C@@H](n2cnc3c(N)ncnc32)[C@H](O)[C@@H]1O	.	.	4.8%	-0.2%
8	CCOc1ccc(C(=O)N/N=C/c2ccccc2[N+](=O)[O-])cc1	5.2	-33.6%	-16.8%	1.6%
9	COC(=O)Cc1ccc(NC(=O)c2ccccc2Br)cc1	6.9	1.3%	-11.7%	-2.5%
10	O=c1oc2cc(OCc3ccc([N+](=O)[O-])cc3)ccc2c2c1CCCC2	3.9	-16.1%	-6.5%	?
11	Cc1ccc(S(=O)(=O)N2CCOCC2)cc1C(=O)N1CCN(c2ncccn2)CC1	.	.	10.9%	1.0%
12	CCOc1ccc(NC(=O)CC2C(=O)N(C)C(=S)N2CCCc2ccccc2)cc1 (stereo unspecified)	-9.4	4.5%	1.8%	-1.6%
13	N#Cc1c(-c2ccc(Br)cc2)cc(-c2cccnc2)nc1N	7.8	-11.7%	-2.9%	0.0%
14	C=CCN1C(=O)CSC1=Nc1ccc(C(=O)O)cc1	.	-6.6%	9.9%	-3.3%
15	CN(c1ccccc1)c1nc(N)c([N+](=O)[O-])c(NCc2ccccc2)n1	-7.2	-33.1%	-0.5%	4.7%
16	CCCCNC(=O)c1onc(CSc2cccc3ccccc23)c1C(=O)O	-10.8	-11.3%	0.0%	0.2%
17	Cc1ccnc(NC(=O)CCC(=O)N(CC(=O)NC2CCCCC2)c2cccc(C)c2C)c1	-0.8	0.0%	0.4%	-1.0%
18	CCCC(O)(c1ccccc1)C(c1ccccc1)c1ccccn1 (stereo unspecified)	.	.	4.5%	0.9%
19	Nc1c(S(=O)(=O)c2cccs2)c2nc3ccccc3nc2n1/N=C/c1cccc(O)c1	-6.1	?	32.6%	-5.5%
20	Cc1cccc(C(=O)Oc2coc(CSc3nnc(NC(=O)C4CC4)s3)cc2=O)c1	0.3	-4.8%	-11.1%	-0.9%
21	CC(=O)Nc1ccc2c(c1)nc(C)n2Cc1ccccc1	.	-6.5%	5.7%	8.3%
22	CC(=O)c1cnc(N2CCCCC2)nc1C	2.4	-12.5%	-4.2%	1.2%
23	CCOC(=O)/C=C/C(=O)Nc1ccc(S(=O)(=O)Nc2nccs2)cc1	.	-1.4%	-2.5%	0.4%
24	COC(=O)C1(C)COP(=O)(NC23CC4CC(CC(C4)C2)C3)OC1 (stereo unspecified)	.	.	7.3%	-1.8%
25	COc1ccc(OC)c(/C=N/NC(=O)c2cnccn2)c1	4.0	3.2%	-7.6%	1.9%

# 2 entries from above, with one line to a screen:
22: CC(=O)c1cnc(N2CCCCC2)nc1C
23: CCOC(=O)/C=C/C(=O)Nc1ccc(S(=O)(=O)Nc2nccs2)cc1
Screen / compound no. | 22 | 23
GLA inh pH 4.5 | 2.4 | .
miR-21 FLuc | -12.5% | -1.4%
Rango release inh | -4.2% | -2.5%
Rango complex inh | 1.2% | 0.4%

# The list continues:
no.	Structure	GLA inh pH 4.5	miR-21 FLuc	Rango release inh	Rango complex inh
26	N#CC(C#N)=C(N)Nc1cccc(Cl)c1	6.3	0.2%	-1.3%	4.4%
27	Cc1ccc(-c2csc(Nc3ccc(S(N)(=O)=O)cc3)n2)o1	-5.5	-11.3%	-6.0%	-0.3%
28	CCOc1ccc(C(=O)Nc2nnc(C3=COCCO3)o2)cc1	.	-6.2%	2.8%	2.1%
29	CCCCCOC(=O)c1cc(=O)[nH]c2ccccc12	-13.4	-32.7%	-3.1%	-1.1%
30	COc1cccc(-c2nc(-c3ccc4c(c3)-c3ccccc3S4(=O)=O)c(-c3ccccc3)[nH]2)c1OC	10.0	-14.0%	?	?
31	CCCCN(CCCC)c1nc2ccccc2nc1C(C#N)C(=O)NCCCOC (stereo unspecified)	-3.4	3.8%	?	?
32	CCOC(=O)C1CCN(S(=O)(=O)c2ccc(-c3ccc(=O)[nH]n3)o2)CC1	.	0.7%	-1.1%	0.6%
33	COc1cnc(SCc2ccc(Cl)c(Cl)c2)nc1Cl	-9.8	5.4%	13.3%	3.5%
34	CC(C)CC(=O)OCc1cn(-c2ccccc2)nn1	-0.3	-22.0%	-5.5%	-1.6%
35	COc1ccc(S(=O)(=O)NC2CCCC2)cc1C(N)=O	.	-1.0%	0.7%	-2.4%
36	Cc1oc(-c2ccc(-c3ccccc3)cc2)nc1CN(C)C1CCOC1 (stereo unspecified)	5.6	-22.5%	32.8%	0.1%
37	COCCCn1c(SCC(=O)NC(C)(C)C)nnc1-c1ccccc1	-7.6	-0.1%	4.2%	-0.6%
38	COCCNC(=O)Cc1c(C)c2c(cc(C)c3c(C)coc32)oc1=O	.	-1.0%	-0.1%	-1.5%
39	CCN(C[C@H]1N[C@@](CC)(C(=O)OC)[C@H]2C(=O)N(C)C(=O)[C@@H]12)C(=O)Nc1ccc(C(F)(F)F)cc1	.	.	-13.1%	2.3%
40	O=C(/C=C/c1ccccc1)NNC(=O)C1CC1	-3.3	-9.0%	14.8%	3.5%
41	CC(NC(=O)c1ccccc1)c1nnc(SCC(=O)NC2=NCCS2)n1C (stereo unspecified)	.	-2.3%	53.2%	4.9%
42	CC(=O)c1ccc(S(=O)(=O)N2CCN(C(=O)c3ccc(-n4cncn4)c([N+](=O)[O-])c3)CC2)cc1	.	.	29.1%	0.6%
43	O=C(NC(Cc1c[nH]c2ccccc12)C(=O)O)/C(=C\c1ccc2c(c1)OCO2)NC(=O)c1ccccc1 (stereo unspecified)	-3.5	-0.9%	10.6%	-2.3%
44	O=C1CCN(Cc2ccccc2)C(=S)N1	.	.	0.6%	-5.2%
45	O=S(=O)(c1cccc2nsnc12)N1CCN(c2ccccc2F)CC1	3.9	-2.9%	30.8%	-1.3%
46	COC(=O)C(C)N1C(=O)S/C(=C\c2ccc(-c3ccc(C(=O)O)cc3C)o2)C1=O (stereo unspecified)	.	-60.3%	?	?
47	[O-]/[N+](=C\c1ccccc1)[C@@H]1CCCC[C@@H]1/[N+]([O-])=C/c1ccccc1	-9.1	-2.2%	4.1%	-0.9%
48	Cc1cc(C)c(S(=O)(=O)NC2CCN(Cc3ccccc3)CC2)c(C)c1	-11.3	1.3%	-14.8%	0.3%
49	CCn1c(SCC(=O)NC2CC2)nnc1-c1cccc(OC)c1	.	1.1%	-6.0%	0.1%
50	CCOCC(=O)NCc1ccc2c(c1)OCO2	10.3	-0.1%	27.3%	-3.3%
51	COc1ccc2nc(NC(=O)CCn3cccc3)sc2c1	-5.0	-15.8%	0.9%	?
52	Cc1cccc(C)c1NC(=O)CN1C(=O)NC(C)(C2CC2)C1=O (stereo unspecified)	.	.	-10.1%	1.5%
53	CC(=O)N1CCOc2ccc(S(=O)(=O)N3CCC(C(=O)NCc4ccccc4)CC3)cc21	.	5.6%	-2.2%	3.3%
54	Cc1cccc(C(=O)NNC(=O)c2ccccc2Br)c1	.	-29.7%	4.7%	-0.2%
55	Cn1c(CCC(=O)Nc2cc(S(C)(=O)=O)ccc2Cl)nc2cc(S(=O)(=O)N3CCOCC3)ccc21	.	.	0.4%	-1.9%
56	COc1ccc(C(=O)NC(=S)NNC(=O)c2ccccc2C)cc1	.	.	-8.8%	-0.2%
57	Cn1c(CCN2CCOCC2)nc2cc(NS(=O)(=O)c3ccccc3)ccc21	-0.5	9.9%	6.1%	-1.6%
58	NC(=O)C1CCN(C2=C(NS(=O)(=O)c3ccc(Br)cc3)C(=O)c3ccccc3C2=O)CC1	.	13.2%	24.1%	-0.8%
59	CCc1sc(C(=O)Nc2cc(Cl)ccc2N2CCCCC2)cc1C	-0.5	-6.9%	5.6%	2.5%
60	COc1ccccc1CCNC(=O)c1ccc2nc[nH]c2c1	.	-24.8%	-1.8%	1.1%
61	O=C(CN1CCN(S(=O)(=O)c2ccc(F)cc2)CC1)Nc1cccc(C(F)(F)F)c1	-0.6	18.0%	-2.4%	2.0%
62	COc1ccc(Cl)cc1Nc1nc(NCCO)nc(N2CCCC2)n1	-1.8	-4.7%	14.6%	1.4%
63	CS(=O)(=O)Nc1ccc(C(=O)Nc2ccc(S(=O)(=O)Nc3nccs3)cc2)cc1	.	-5.2%	5.6%	?
64	C=CC[C@@H](CC(=O)N(CCO)Cc1ccccc1)C(=O)N[C@H](COC(=O)[C@@H](CC=C)CC(=O)OC(C)(C)C)c1ccccc1	.	.	29.3%	-4.0%
65	O=[N+]([O-])c1cnn2cc(Br)cnc12	-2.0	-3.2%	-6.3%	-2.8%
66	C/C(CC(=O)Nc1cc(Cl)ccc1Cl)=N\NC(N)=S	1.0	-19.7%	-0.1%	1.8%
67	COc1ccc(Cn2c(=O)[nH]c3cc(OC)c(OC)cc3c2=O)cc1	-7.2	-0.4%	5.3%	-3.8%
68	CCOC(=O)C1(Cc2cccc(OC)c2)CCN(CC2CC=CCC2)CC1 (stereo unspecified)	-6.0	-2.0%	-5.2%	-4.2%
69	CCOc1ccc(S(=O)(=O)N2CCN(C(=O)c3cccnc3)CC2)cc1	.	-0.9%	5.0%	1.0%
70	COC(=O)C[C@H]1c2ccccc2S(=O)(=O)N1Cc1ccc(OC)cc1	.	.	6.0%	-4.4%
71	CC1=C(C(=O)OCc2ccccc2)C(c2ccccc2)NC(=O)N1CCCCCC(=O)O (stereo unspecified)	4.8&0.3	-17.0%	1.3%	-0.4%
72	Cc1cc(C)c(OCC(=O)Nc2nnn(C)n2)c(Br)c1	6.6	-8.7%	-15.0%	1.1%

# Of the compounds above, 14 contain an aryl methoxy group:
no.	Structure	GLA inh pH 4.5	miR-21 FLuc	Rango release inh	Rango complex inh
1	COc1ccc(C(=O)NC(Cc2ccccc2)c2ccc3c(c2)OCCCO3)cc1 (stereo unspecified)	-3.8	-20.1%	1.3%	-2.0%
6	COc1ccc(Cl)cc1NC(=O)COc1ccc2c(c1)OCO2	.	.	13.4%	-1.0%
25	COc1ccc(OC)c(/C=N/NC(=O)c2cnccn2)c1	4.0	3.2%	-7.6%	1.9%
30	COc1cccc(-c2nc(-c3ccc4c(c3)-c3ccccc3S4(=O)=O)c(-c3ccccc3)[nH]2)c1OC	10.0	-14.0%	?	?
33	COc1cnc(SCc2ccc(Cl)c(Cl)c2)nc1Cl	-9.8	5.4%	13.3%	3.5%
35	COc1ccc(S(=O)(=O)NC2CCCC2)cc1C(N)=O	.	-1.0%	0.7%	-2.4%
49	CCn1c(SCC(=O)NC2CC2)nnc1-c1cccc(OC)c1	.	1.1%	-6.0%	0.1%
51	COc1ccc2nc(NC(=O)CCn3cccc3)sc2c1	-5.0	-15.8%	0.9%	?
56	COc1ccc(C(=O)NC(=S)NNC(=O)c2ccccc2C)cc1	.	.	-8.8%	-0.2%
60	COc1ccccc1CCNC(=O)c1ccc2nc[nH]c2c1	.	-24.8%	-1.8%	1.1%
62	COc1ccc(Cl)cc1Nc1nc(NCCO)nc(N2CCCC2)n1	-1.8	-4.7%	14.6%	1.4%
67	COc1ccc(Cn2c(=O)[nH]c3cc(OC)c(OC)cc3c2=O)cc1	-7.2	-0.4%	5.3%	-3.8%
68	CCOC(=O)C1(Cc2cccc(OC)c2)CCN(CC2CC=CCC2)CC1 (stereo unspecified)	-6.0	-2.0%	-5.2%	-4.2%
70	COC(=O)C[C@H]1c2ccccc2S(=O)(=O)N1Cc1ccc(OC)cc1	.	.	6.0%	-4.4%
